# Menin MLL FP FL: inhibitors of human menin-MLL interaction, wild-type MLL peptide; 290,000 tested, under 10 active; Fluorescence polarization, fluorescein-MLL peptide displacement from menin; AID 1766; FP activity change, % at 61.4 µM; inconclusive = falling polarisation curve, or a change in total fluorescence; inactive = total fluorescence flat and polarisation flat or rising; no compound was filed as active; the % refers to the polarisation; negative = inhibition;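 further: % of control where 0% means no effect; inhibitors lower the polarisation; unlabelled MLL peptide was the positive control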
# TRPML1 blocker: blocks the human TRPML1 channel; Q9GZU1; TRPML1-inducible cells, Ca2+ dye fluorescence, FDSS; active compounds read low; inhibition of EC80 agonist-evoked calcium signal; activity change, negative = inhibition, % (test concentration not listed); 390,000 tested, 0.02% active; AID 624415; in the data active means activity change below about -50%; inconclusive means about -30% to -50%; inactive means above about -30%;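 further: stimulus is agonist 54-4 at its EC80 concentration; on the % scale 0 is the no-effect control and ±100 the full control effect; compound concentration not given in the record; the text of the record puts the active cut at -80%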
#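 TRPML1-DL cells, Tet-induced overnight (~16 h, 37 °C) at 1,500 cells/well, were loaded with Ca8 no-wash dye plus quencher for 45-90 min at room temperature. Compounds were pinned during FDSS kinetic reading; agonist 54-4 at EC80 (4 uM final) then added.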
# PINK1 modulator: changes PINK1 expression; PINK1 immunofluorescence, high-content cytometry, 24 h; 410,000 tested, 0.2% active; AID 624263; Potency, µM (series often up to 76.6 µM), without a hit: at the top dose activation (PINK1 increase), most hits filed as activators; active = well fitted activation curve with a large enough effect; inconclusive = small, poorly fitted or top-dose-only effect; inactive = flat fitted curve, though single readings scatter; cell line not stated here;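 further: potency means the concentration at half of the fitted maximal effect; % of control where 0% means no effect; nearly all actives have a fitted effect of over 65% in size; a mitochondrial uncoupler was the plate control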
#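 Stable cell line treated 24 h with compounds at 5 concentrations (CCCP controls), then fixed and immunostained for PINK1 plus nuclear and cell stains; PINK1 immunofluorescence quantified by laser-scanning microplate cytometry.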
# TRPV1 potentiator: enhances activation of the human vanilloid receptor TRPV1. potentiation, % at 8.33 µM. Q8NER1. AID 540277. TRPV1-expressing cells, Fluo-8 calcium influx, capsaicin EC20 potentiation; host cell line not named in the record; control for the full effect not named in the record. 320,000 tested, 0.02% active; active means potentiation above 80%; inconclusive means 30% to 80%; inactive means below 30%; further: 0% is about no effect
# Target sequence (Q8NER1 whole entry, looked up): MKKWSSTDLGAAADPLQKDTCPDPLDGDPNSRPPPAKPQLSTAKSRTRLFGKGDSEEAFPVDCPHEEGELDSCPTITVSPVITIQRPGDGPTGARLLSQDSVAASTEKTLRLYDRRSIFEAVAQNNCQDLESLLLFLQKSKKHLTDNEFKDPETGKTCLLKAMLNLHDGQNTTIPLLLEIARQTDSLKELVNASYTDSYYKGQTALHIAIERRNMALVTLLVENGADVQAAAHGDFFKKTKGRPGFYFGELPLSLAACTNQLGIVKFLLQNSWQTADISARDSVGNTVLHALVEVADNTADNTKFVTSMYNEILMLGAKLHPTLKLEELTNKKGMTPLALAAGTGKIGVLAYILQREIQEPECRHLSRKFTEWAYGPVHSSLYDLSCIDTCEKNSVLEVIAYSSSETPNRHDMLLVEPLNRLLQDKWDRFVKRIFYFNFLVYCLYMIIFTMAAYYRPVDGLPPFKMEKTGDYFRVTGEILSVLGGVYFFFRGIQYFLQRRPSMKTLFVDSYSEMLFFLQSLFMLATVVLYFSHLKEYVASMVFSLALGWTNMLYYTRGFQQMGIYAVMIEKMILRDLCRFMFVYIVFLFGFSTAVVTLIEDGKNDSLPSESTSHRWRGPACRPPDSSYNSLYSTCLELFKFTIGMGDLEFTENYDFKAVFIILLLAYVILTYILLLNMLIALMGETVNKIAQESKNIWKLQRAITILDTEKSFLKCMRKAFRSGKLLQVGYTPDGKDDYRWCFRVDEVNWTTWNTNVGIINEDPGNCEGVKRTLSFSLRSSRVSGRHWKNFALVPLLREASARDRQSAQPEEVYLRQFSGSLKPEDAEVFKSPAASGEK
#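 Fluo-8 calcium influx in TRPV1-expressing cells, kinetic read (ex 480/em 520 nm). Compound added and read 3 min for agonist activity, followed by capsaicin at EC20 final and 2 min further read for enhancement.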
# ClpP mod: qHTS Assay for Activators of ClpP; ATP-dependent Clp protease proteolytic subunit (Bacillus subtilis (strain 168)), P80244; purified B. subtilis ClpP, FRET peptide cleavage, 20 min; Potency, µM (doses to about 57.5 µM), inactives show at the top dose activity change, negative = active; 340,000 tested, 1.9% active; active = well fitted falling curve with a large enough effect; inconclusive = small, poorly fitted or top-dose-only effect; inactive = no such curve, though single readings can be large or run the other way; further: potency means the concentration at half of the fitted maximal effect; the source files actives as falling curves though it sought activators and does not explain the sign; nearly all actives have a fitted effect of over 65% in size; many hits overshoot -100%
# Target sequence (P80244 whole entry, looked up): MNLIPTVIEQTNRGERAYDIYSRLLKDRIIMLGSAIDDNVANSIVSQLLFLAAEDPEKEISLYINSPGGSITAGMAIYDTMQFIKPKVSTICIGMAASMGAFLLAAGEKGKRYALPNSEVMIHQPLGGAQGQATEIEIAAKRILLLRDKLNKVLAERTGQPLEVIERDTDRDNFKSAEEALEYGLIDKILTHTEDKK
#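 Buffer: 100 mM Tris/HCl pH8, 100 mM KCl, 0.05% low protease BSA, 2.5% glycerol, 0.01% Tween-20. ClpP 10 microg/mL final; 20 min RT; delta FRET normalized to ADEP and DMSO controls.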
# TRPML1 agonist: agonists of human TRPML1 channel. Q9GZU1. TRPML1-expressing cells, Ca2+ dye fluorescence, FDSS; host cell line not named in the record; reference of the full effect not given here. activation, % (no concentration beside the values). 410,000 tested, 0.12% active; in the data active = activation above about 50%; inconclusive = about 30% to 50%; inactive = below about 30%; further: 0% is about no effect; the text of the record puts the active cut at 80%
#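 Tet-induced TRPML1-DL cells, 1,500 per well, cultured overnight, were loaded with a no-wash Ca2+ dye for 45–90 min. Calcium fluorescence was recorded on the FDSS for 110 s after compound addition, before the EC80 agonist (4 uM 54-4) was added.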
# Sfp PPTase inh: blocks B. subtilis Sfp PPTase activity. 310,000 tested, 3.5% active. Biochemical Sfp PPTase activity, qHTS. AID 1490. Potency, µM, for inactives: max response, negative = inhibition, actives largely listed as inhibitors. Q9F4F7; active means well fitted inhibition curve with a large enough effect; inconclusive means small, poorly fitted or top-dose-only effect, or another doubt; inactive means no such curve, though single readings can be large or run the other way;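 further: the enzyme is Sfp with the accession as filed and its product quenches rhodamine fluorescence; potency means the concentration at half of the fitted maximal effect; 0% = enzyme reaction without inhibitor and -100% = no enzyme wells; top concentration of the series not given in the record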
#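 Buffer: 50 mM Hepes-Na pH 7.6, 10 mM MgCl2, 0.01% Nonidet P-40, 0.01% BSA. Enzyme 15 nM, pre-exposed to compound 15 min; substrates then added and fluorescence change tracked over 30 min.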
# Active calls of the source: *; ? = inconclusive; . = not tested or not shown; & = joins results of further samples; [ ] = dose if it differs, or a comment.
# Each structure is followed by: Menin MLL FP FL	TRPML1 blocker	PINK1 modulator	TRPV1 potentiator	ClpP mod	TRPML1 agonist	Sfp PPTase inh
c1ccc(CN2CCN(CCOCCOc3cccc4ccccc34)CC2)cc1
→ -1.6	-2.4	2.7%	-0.8	.	-0.4	50.1µM*
Cc1csc2ncc(C(=O)NC(C)c3ccccc3)c(=O)n12 (configuration not stated)
→ 1.2	-5.5	-0.3%	21.2	4.3%	0.2	8.5%
O=C(c1cccn2c(=O)c3ccc(Cl)cc3nc12)N1CCN(Cc2ccc3c(c2)OCO3)CC1
→ 1.8	6.5	-2.2%[38.3 µM]	4.4	22.4µM*	0.1	4.2%
CCCCN(C)CCCNC(=O)Cn1c(=O)sc2ccccc21
→ -2.0	-14.1	-2.2%	7.1	0.9%	1.1	-3.7%
COc1ccc(/C=C/C(=O)NCCSCc2ccco2)cc1
→ 6.2	-3.8	-0.3%	-14.0	?	-0.6	-12.1%
O=c1[nH]c(=S)c2[nH]c(=S)n(-c3ccccc3)c2[nH]1
→ .	-0.3	1.2%	.	.	-0.6	.
Nc1cccc2c1C(=O)N(C(=O)c1cccc(S(=O)(=O)N3CCCC3)c1)C2=O
→ ?	8.2	-0.7%	10.0	4.4%	-0.1	6.2%
CCOc1ccc(/C=C/c2nc(C#N)c(NCCCN(C)C)o2)cc1
→ 0.6	-15.0&21.5	8.2%&1.6%	-9.2	4.7%	0.2&-0.7	11.4%
CCc1ccc(NC(=O)c2cnc3scc(C)n3c2=O)cc1
→ 1.9	3.1	-0.2%	-9.9	5.2%	-0.5	7.3%
Cc1ccc(O)c(NC(=O)COc2cc(C)ccc2C)c1
→ -0.6	-4.5	-1.2%	1.2	-14.9%	0.8	5.8%
CCOC(=O)c1cc2sc(C)cc2n1CC(=O)N1CCOCC1
→ 3.2	0.8	.	-4.1	-6.8%	0.2	-9.2%
O=S(=O)(c1ccc(Cl)cc1)N1CCN=C1SCc1cccc(Cl)c1
→ 1.2	58.8	11.3%	-11.3	0.9%	1.6	7.1%
CCc1ccc(NC(=O)CSc2nnc(CNC(=O)c3ccco3)o2)cc1
→ -2.6	-6.6	-1.2%	7.1	0.4%	-0.7	13.3%
CCOC(=O)/C=C/C(=O)OCC(=O)Nc1ccc(Cl)cn1
→ 5.2	6.8	1.1%	-3.3	-2.3%	-1.1	7.7%
Cc1noc(C)c1C(=O)N1CCC1(C)C(=O)NS(=O)(=O)c1ccc(Cl)cc1 (configuration not stated)
→ .	56.9	-1.6%	.	-6.0%	-0.9	.
CC12CNCC(C)(CN(C(c3ccccc3)c3ccccc3)C1)C2
→ -0.1	5.4	?	24.7	-0.5%	-1.1	1.5%
COc1ccc(N2CCN(S(=O)(=O)c3c(C)nc4scc(C)n4c3=O)CC2)cc1
→ .	2.0&-21.7	-0.7%&1.8%	?	-11.0%&-18.9%	-0.5&-0.2	5.4%
CCOc1ccc(N2C(=O)CC(Sc3nccc(C)n3)C2=O)cc1 (configuration not stated)
→ 3.5	13.7	-1.8%	4.9	0.2%	-0.7	3.8%
CN(C)S(=O)(=O)N1CCC(Oc2cccc(C(=O)NC3CCOC3)c2)CC1 (configuration not stated)
→ .	-1.2	0.8%	-24.9	-1.4%	0.1	7.0%
CCOC(=O)C1CCN(C(=O)COC(=O)c2ccccc2C(=O)c2ccc(Cl)cc2)CC1
→ .	-3.8	0.8%	8.1	-1.1%	1.8	.
Cc1ccc(NC(=O)c2cccs2)cc1S(=O)(=O)N(C)C
→ -1.5	3.5	0.0%	-14.6	0.8%	1.1	0.4%
C=CCN(CC=C)C(=S)NC(=O)/C=C/c1ccc(OC)cc1
→ -2.6	13.8	1.1%	2.9	1.7%	3.3	4.9%
CN(Cc1c(C(=O)N/N=C/c2cccc(Cl)c2)nnn1-c1nonc1N)c1ccccc1
→ 0.2	8.8	0.0%	0.8	-1.6%	1.2	11.5%
O=[N+]([O-])c1ccc(COc2ccc(-c3[nH]ncc3-c3ccccc3)c(O)c2)cc1
→ 1.7	1.1	-1.0%	-13.2	-1.9%	0.8	13.9%
CCN(CC)c1ccc(CNc2ccc3c(c2)ncn3C(C)(C)C)cc1
→ -4.1	26.9	29.9%	-22.5	-21.4%	3.5	?
O=C(COS(=O)c1ccccc1)Nc1cc(Cl)ccc1N1CCOCC1 (configuration not stated)
→ 1.8	-10.9	0.0%	22.9	0.0%	0.7	-8.8%
Cc1nn(-c2ccccc2)c2[nH]c(=O)c(CNc3ccc(N4CCOCC4)cc3)cc12
→ 2.3	-8.2	4.7%	-1.5	-3.6%	0.2	44.7µM*
COc1ccc(NC(=O)CSc2nc3ccccc3n2CC(=O)N2CCCC(C)C2)cc1 (configuration not stated)
→ .	2.0	-1.4%	.	-1.7%	0.1	.
COc1ccc(C(=O)Sc2ccc(C)cc2)cc1OC
→ 0.2	-10.2	6.1%	7.8	-0.5%	1.3	-17.3%
CCN1CCN(CCC(=O)Nc2ccccc2OC)CC1
→ -2.3	-6.3	12.5%[38.3 µM]	24.9	-1.7%	1.4	23.1%
COCCNC(=O)COC(=O)c1cccnc1SC
→ -1.4	-7.5	0.3%	8.3	.	-0.3	13.4%
CC(C1CC2CCC1C2)N1CC(O)=C(c2nc3ccccc3[nH]2)C1=N (configuration not stated)
→ 15.6	12.5	4.1%	-18.1	.	2.1	13.4%
O=C(C1CC1)N1CCc2cc(Br)cc(S(=O)(=O)NCCCN3CCCC3)c21
→ 2.5	7.7	2.0%	22.5	3.6%	-0.2	5.2%
C/C=C/C=C\C(=O)Nc1cccc(C2=NOC3(C2)C[C@@H](C(N)=O)N(C(=O)c2cc([N+](=O)[O-])cc([N+](=O)[O-])c2)C3)c1 (some centres not stated)
→ 4.5	58.8	-1.0%	-12.6	1.0%	-0.8	50.1µM*
Cc1cccc(OCCn2c(NC(=O)c3ccco3)nc3ccccc32)c1
→ 3.1	1.3	13.6%	-11.3	19.3%	2.5	-4.8%
Cc1ccc(CNC(=O)[C@H](C)N2C(=O)N3CCc4c([nH]c5ccccc45)[C@@]3(C)C2=O)cc1
→ 3.1	.	6.9%	?	1.2%	.	15.6%
CN(CC(=O)Nc1ccc(F)c(F)c1F)c1cnccn1
→ 4.0	.	.	-2.1	.	.	-29.5%
COc1ccc(CCNC(=O)CCn2c(=O)c3cccn3c3cccnc32)cc1OC
→ .	7.8&-18.6	1.7%&0.3%	-8.9	-14.6%&-24.6%	-0.3&2.4	6.4%
O=C(c1ccccc1Cl)n1nc(-c2cccnc2)nc1NCc1ccc(F)cc1
→ .	-4.9	8.4%	.	0.3%	0.7	.
COCCn1c(SCc2nc3ccccc3c(=O)[nH]2)nnc1-c1ccncc1
→ 4.8	17.3	-2.6%[38.3 µM]	7.8	-2.1%	1.4	7.9%
CCOCCCNC(=O)c1c(NC(=O)c2cc(=O)c3ccccc3o2)sc2c1CCC2
→ .	-16.6	-0.4%	.	-1.0%	-0.6	.
COc1ccc(NC(=O)c2cc(C3CCCCN3C(=O)c3cc(C(C)(C)C)nn3C)on2)c(C)c1 (configuration not stated)
→ .	.	2.5%	.	0.8%	-0.7	.
COc1ccc(C(=O)Nc2nnc(Cc3ccc(OC)c(OC)c3)s2)c(OC)c1
→ 2.3	-11.2	7.1%	0.4	.	0.9	20.4%
O=C1C2CC3N1CCC31c3ccccc3-n3c1c2ccc3=O (configuration not stated)
→ .	13.5	1.4%	.	?	0.0	.
C=CCNc1nc(-c2sc(NC(C)=O)nc2C)cs1
→ 4.1	-0.6	-2.1%	2.5	-13.7%	-0.3	-21.0%
COc1ccc(C(=O)NC(=S)NCCc2ccccc2)cc1
→ -1.4	4.6	0.7%	6.1	.	2.1	-4.9%
Cn1c(=O)c2c(nc(NCc3ccc4c(c3)OCO4)n2Cc2ccccc2Cl)n(C)c1=O
→ 5.1	-1.1	8.9%	5.3	1.1%	1.4	4.3%
CCN(C(=O)CN1CCOCC1)c1c(N)n(Cc2ccccc2)c(=O)[nH]c1=O
→ -6.3	3.7	0.3%	-8.2	.	-0.7	25.8%
Cc1ccc(S(=O)(=O)CCc2ccncc2)cc1
→ 3.8	1.6	-1.0%	6.3	0.9%	-0.4	2.7%
COc1ccc(OCC(=O)N/N=C2\CCc3ccccc32)cc1
→ 3.0	-0.9	1.1%	10.4	-1.0%	-0.6	5.2%
COC(=O)N/N=C\c1ccc(OC(=O)c2ccco2)cc1
→ -5.3	-7.9	-3.4%	10.7	.	-0.2	1.6%
O=C(Nc1ccccn1)C1CCN(S(=O)(=O)c2ccc(Cl)cc2)CC1
→ .	7.8	7.4%	-13.3	.	4.5	.
COc1ccc(-c2nnc(SCc3nnc(-c4cccs4)o3)n2CC2CCCO2)cc1 (configuration not stated)
→ -0.2	-7.5	-2.2%	-5.9	-1.8%	-0.7	14.6%
Cc1cccc(OCC(=O)Nc2ccc(S(=O)(=O)N3CCN(C)CC3)cc2)c1
→ 3.0	0.3	-0.9%	27.0	1.2%	1.0	16.4%
Cc1cc(=O)[nH]c(=S)n1-c1ccccc1
→ 1.1	-0.3	15.2%[38.3 µM]	14.0	0.8%	-0.5	-19.6%
CCOc1ccccc1NC(=O)c1cccc2c1C(=O)N(CCOC)C2
→ 7.1	-7.4	1.5%	0.8	-1.3%	-0.3	18.2%
CCC(C(=O)Nc1ccccc1OC)n1nc(C)c2sc3ccccc3c2c1=O (configuration not stated)
→ .	11.7	1.8%	.	-2.3%	0.6	.
COC(=O)C(NC(=O)c1ccccc1)(Nc1nc(C)cs1)C(F)(F)F (configuration not stated)
→ 3.3	16.8	13.2%[38.3 µM]	?	-2.1%	3.2	7.4%
O=C1Nc2c(c(=O)[nH]c(=O)n2-c2ccc(Cl)cc2)C1(NS(=O)(=O)c1ccccc1)C(F)(F)F (configuration not stated)
→ .	-2.1	-0.9%	.	-8.8%	-0.6	.
Cc1ccc(CNC(=O)CN2Cc3ccccc3C2=O)cc1
→ .	-25.2	-0.7%	.	-0.2%	0.0	.
CC(NC(=O)c1ccc(N(C)C)cc1)C1CC2CCC1C2 (configuration not stated)
→ 2.7	19.9	2.2%	-23.8	-1.2%	-0.2	11.6%

# Bioassay records (PubChem)
